FGF22 binding – shifts melting point of recombinant human FGF22; Q9HCT0; recombinant FGF22 thermal shift, SYPRO orange fluorescence; percent of sucrose octasulfate shift, DMSO zero; calls only at 9.99 µM; 340,000 compounds, 1.5% hits;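 active = melting point raised past a set limit in the mean and every replicate; three in four hits are not shown here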
Target sequence (Q9HCT0 whole entry, looked up): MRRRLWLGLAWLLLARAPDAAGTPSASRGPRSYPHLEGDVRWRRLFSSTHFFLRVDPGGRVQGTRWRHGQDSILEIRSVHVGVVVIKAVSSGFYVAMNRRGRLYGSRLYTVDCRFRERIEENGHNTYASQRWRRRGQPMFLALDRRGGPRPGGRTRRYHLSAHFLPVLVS
Calls only; i = inactive. This is a subset. The share of hits here may be higher or lower than overall.

FGF22 binding	canonical_smiles
i	CO[C@H]1CN(C)C(=O)c2ccc(NC(=O)Nc3ccc(Cl)cc3)cc2OC[C@@H](C)N(C(=O)Nc2c(C)noc2C)C[C@H]1C
i	CNC(=O)C[C@H]1CC[C@H]2[C@@H](COc3ccc(NC(=O)Nc4cccc(Cl)c4)cc3C(=O)N2C)O1
i	C[C@H]1CCCCO[C@@H](CN(C)S(=O)(=O)c2cn(C)cn2)[C@@H](C)CN([C@@H](C)CO)C(=O)c2cc(NC(=O)Nc3ccc(C(F)(F)F)cc3)ccc2O1
i	CO[C@H]1CN(C)C(=O)c2ccc(NC(=O)C3CCC3)cc2OC[C@@H](C)N(Cc2nccs2)C[C@H]1C
i	CC=Cc1ccc2n(c1=O)C[C@H]1[C@H](CO)[C@@H](C(=O)N(C)C)[C@@H]2N1C(=O)c1ccc(F)cc1 (mixture of isomers)
i	O=C(Nc1cc(F)ccc1F)N1CCCCN2[C@@H](CO)[C@@H](c3ccc(-c4cncnc4)cc3)[C@@H]2C1
i	C[C@@H]1CN([C@@H](C)CO)C(=O)c2cccc(NC(=O)NC3CCCCC3)c2O[C@H]1CN(C)S(=O)(=O)c1ccc(Cl)cc1
i	C[C@@H]1ON(C)[C@H]2C[C@H]3c4[nH]c5c(-c6ccc(F)cc6)cccc5c4CCN3C(=O)[C@@H]12
i	Cc1ccc(-c2cnc3c(c2)C(=O)N([C@@H](C)CO)C[C@@H](C)[C@@H](CN(C)C)O3)cc1
i	O=C(C[C@@H]1C[C@@H]2c3cc(NC(=O)NC4CCCC4)ccc3O[C@@H]2[C@@H](CO)O1)NCc1ccc(-c2ccccc2)cc1
i	COc1ccc(S(=O)(=O)N(C)C[C@@H]2Oc3cc(C4=CCCC4)ccc3S(=O)(=O)N([C@H](C)CO)C[C@@H]2C)cc1
i	O=C(C[C@H]1C=C[C@@H](NC(=O)C2CCC2)[C@H](CO)O1)NCCCN1CCOCC1
i	C[C@H](CO)N1C[C@H](C)[C@H](CN(C)C)Oc2cc(C3=CCCC3)ccc2S1(=O)=O
i	C[C@@H]1CCCCO[C@@H](CN(C)C(=O)CCC(F)(F)F)[C@@H](C)CN([C@H](C)CO)C(=O)c2cc(NC(=O)c3ccccc3)ccc2O1
i	CCCN(C)C[C@H]1Oc2ncc(-c3cccnc3)cc2C(=O)N([C@@H](C)CO)C[C@@H]1C
i	COc1ccc(CN(C)C[C@H]2OCCCC[C@H](C)Oc3ccc(NC(=O)Nc4ccccc4)cc3C(=O)N([C@@H](C)CO)C[C@@H]2C)cc1
i	COc1ccccc1-c1ccc2c(c1)[C@H]1[C@H](CCN1S(=O)(=O)c1ccccc1F)[C@@H](CO)N2
i	C[C@@H]1CCCCO[C@@H](CN(C)CC2CC2)[C@@H](C)CN([C@H](C)CO)C(=O)c2cc(NC(=O)NC3CCCCC3)ccc2O1
i	C[C@@H]1CN([C@H](C)CO)C(=O)Cc2cc(NC(=O)Nc3ccc(C(F)(F)F)cc3)ccc2O[C@H]1CN(C)C(=O)NC1CCCCC1
i	C[C@@H]1CN([C@@H](C)CO)S(=O)(=O)c2ccc(C#CC3CCCCC3)cc2O[C@H]1CN(C)C
i	CNC(=O)C[C@@H]1CC[C@@H]2[C@H](COC[C@H](O)CN2Cc2ccncc2)O1
i	COc1cccc(-c2ccc([C@H]3[C@@H](CO)N(C(=O)c4ccccn4)[C@H]3C#N)cc2)c1
i	COc1ccc(C#Cc2ccc3c(c2)O[C@H](CN(C)C(=O)Nc2cccc(OC)c2)[C@H](C)CN([C@@H](C)CO)S3(=O)=O)cc1
i	Cc1ccccc1-c1cnc2c(c1)C(=O)N([C@@H](C)CO)C[C@@H](C)[C@H](CN(C)Cc1cccnc1)O2
i	O=C(C[C@H]1C[C@@H]2c3cc(NC(=O)C4CCOCC4)ccc3O[C@@H]2[C@@H](CO)O1)NCc1ccccc1
i	C[C@H](CO)N1C[C@H](C)[C@H](CN(C)S(=O)(=O)c2ccccc2)Oc2ccc(NS(=O)(=O)c3ccc(F)cc3)cc2CC1=O
i	CN(C)CC(=O)N1CC2(C1)[C@@H](c1ccccc1)[C@@H](CO)N2S(=O)(=O)c1ccccc1
i	COc1ccc(CN(C)C[C@H]2OCCCC[C@H](C)Oc3ccc(NS(=O)(=O)c4ccc(OC)cc4)cc3C(=O)N([C@H](C)CO)C[C@@H]2C)cc1
i	Cc1ccc(S(=O)(=O)N(C)C[C@@H]2Oc3c(NC(=O)Nc4ccc5c(c4)OCO5)cccc3C(=O)N([C@@H](C)CO)C[C@H]2C)cc1
i	C[C@H]1CN([C@@H](C)CO)C(=O)c2cc(C#CCN(C)C)cnc2O[C@H]1CN(C)C(=O)c1ccc2c(c1)OCO2
i	C[C@H](CO)N1C[C@H](C)[C@@H](CN(C)Cc2ccc3c(c2)OCO3)Oc2c(NC(=O)Nc3ccc(F)cc3)cccc2C1=O
i	C[C@H](NC(=O)[C@H]1[C@H](CO)[C@H]2Cn3c(ccc(-c4cccnc4)c3=O)[C@H]2N1C)c1ccccc1
i	C[C@@H]1CCCCO[C@H](CN(C)C(=O)Cc2ccccc2)[C@H](C)CN([C@H](C)CO)C(=O)c2cc(NS(=O)(=O)c3cccs3)ccc2O1
i	CCC(=O)N[C@@H]1CC[C@@H](CCNC(=O)Nc2ccc(C(F)(F)F)cc2)O[C@@H]1CO
i	COc1ccc(NC(=O)N(C)C[C@@H]2Oc3ccc(NS(=O)(=O)c4cccs4)cc3C(=O)N([C@@H](C)CO)C[C@@H]2C)cc1
i	O=C(C[C@@H]1CC[C@H]2[C@@H](COC[C@@H](O)CN2Cc2ccc(Cl)cc2)O1)NCCc1ccccc1
i	C[C@H](CO)N1C[C@H](C)[C@H](CN(C)Cc2cccc(F)c2)Oc2cc(-c3ccccc3)ccc2S1(=O)=O
i	C[C@H](CO)N1C[C@H](C)[C@@H](CN(C)S(=O)(=O)c2ccc(F)cc2)Oc2ccc(NC(=O)Cc3cn(C)c4ccccc34)cc2CC1=O
i	O=C(Nc1ccc2c(c1)OCO2)N[C@H]1CC[C@@H](CCNC(=O)C2CCC2)O[C@H]1CO
i	Cc1noc(C)c1NC(=O)Nc1cccc2c1O[C@@H](CN(C)Cc1ccc(C(=O)O)cc1)[C@@H](C)CN([C@H](C)CO)C2=O
i	CCS(=O)(=O)N1CCCCN2[C@H](CO)[C@@H](c3ccc(C#Cc4ccccc4OC)cc3)[C@H]2C1
i	COc1ccc(NC(=O)Nc2ccc3c(c2)C(=O)N([C@@H](C)CO)C[C@@H](C)[C@@H](CN(C)Cc2ccc(C(=O)O)cc2)OCCCC[C@@H](C)O3)cc1
i	O=C(N[C@@H]1C=C[C@@H](CC(=O)N2CCN(c3ccccc3)CC2)O[C@@H]1CO)c1ccccc1
i	COC(=O)C1=C(C)N(C)C(=NCc2ccc(C(F)(F)F)cc2)NC1c1ccc(C(F)(F)F)cc1 (stereo not drawn)
i	O=C(NC[C@@H]1[C@H](c2ccccc2)[C@@H](CO)N1C(=O)Cc1cccnc1)C1CC1
i	COc1ccc(S(=O)(=O)Nc2ccc3c(c2)C(=O)N([C@@H](C)CO)C[C@@H](C)[C@@H](CN(C)Cc2ccc4c(c2)OCO4)O3)cc1
i	O=C(Nc1ccccc1F)N[C@@H]1CC[C@H](CCNS(=O)(=O)c2ccccc2)O[C@H]1CO
i	C[C@H](CO)N1C[C@H](C)[C@H](CN(C)CC2CC2)Oc2c(NS(=O)(=O)c3ccccc3)cccc2C1=O

Arranged by heavy-atom count (high to low): part of the list above.
FGF22 binding	canonical_smiles
i	COc1ccc(S(=O)(=O)Nc2ccc3c(c2)C(=O)N([C@@H](C)CO)C[C@@H](C)[C@@H](CN(C)Cc2ccc4c(c2)OCO4)O3)cc1
i	CCS(=O)(=O)N1CCCCN2[C@H](CO)[C@@H](c3ccc(C#Cc4ccccc4OC)cc3)[C@H]2C1
i	O=C(NC[C@@H]1[C@H](c2ccccc2)[C@@H](CO)N1C(=O)Cc1cccnc1)C1CC1

Back to the main list, repeating the 7 entries before the break.
FGF22 binding	canonical_smiles
i	COc1ccc(NC(=O)Nc2ccc3c(c2)C(=O)N([C@@H](C)CO)C[C@@H](C)[C@@H](CN(C)Cc2ccc(C(=O)O)cc2)OCCCC[C@@H](C)O3)cc1
i	O=C(N[C@@H]1C=C[C@@H](CC(=O)N2CCN(c3ccccc3)CC2)O[C@@H]1CO)c1ccccc1
i	COC(=O)C1=C(C)N(C)C(=NCc2ccc(C(F)(F)F)cc2)NC1c1ccc(C(F)(F)F)cc1 (stereo not drawn)
i	O=C(NC[C@@H]1[C@H](c2ccccc2)[C@@H](CO)N1C(=O)Cc1cccnc1)C1CC1
i	COc1ccc(S(=O)(=O)Nc2ccc3c(c2)C(=O)N([C@@H](C)CO)C[C@@H](C)[C@@H](CN(C)Cc2ccc4c(c2)OCO4)O3)cc1
i	O=C(Nc1ccccc1F)N[C@@H]1CC[C@H](CCNS(=O)(=O)c2ccccc2)O[C@H]1CO
i	C[C@H](CO)N1C[C@H](C)[C@H](CN(C)CC2CC2)Oc2c(NS(=O)(=O)c3ccccc3)cccc2C1=O
i	C[C@H]1CN([C@@H](C)CO)S(=O)(=O)c2ccc(-c3cccc(C(=O)N(C)C)c3)cc2O[C@H]1CN(C)C(=O)Nc1ccc(F)cc1
i	CCC(=O)N1C[C@@H](C)[C@@H](OC)CN(C)C(=O)c2ccc(NC(=O)c3ccc(F)cc3)cc2OC[C@@H]1C
i	COc1ccc(CN(C)C[C@H]2OCCCC[C@H](C)Oc3ccc(NC(=O)CCC(F)(F)F)cc3C(=O)N([C@H](C)CO)C[C@H]2C)cc1
i	CCOC(=O)[C@H](Cc1c[nH]c2ccccc12)NC(=O)CN=[N+]=[N-]
i	C[C@H](CO)N1C[C@H](C)[C@H](CN(C)CC2CCCCC2)OCCCC[C@H](C)Oc2ccc(NC(=O)Nc3ccccc3)cc2C1=O
i	CC(C)NC(=O)N(C)C[C@@H]1Oc2ccc(NC(=O)Nc3ccccc3)cc2C(=O)N([C@H](C)CO)C[C@@H]1C
i	O=C(Cc1cccnc1)N1CC(=O)N2[C@H](CO)[C@@H](c3ccc(C4=CCCCC4)cc3)[C@@H]2C1
i	CCC(=O)N1[C@H](CO)[C@@H](c2ccccc2)[C@H]1CN(C(C)C)S(C)(=O)=O
i	CC(C)C#Cc1cnc2c(c1)C(=O)N([C@@H](C)CO)C[C@@H](C)[C@H](CN(C)C(=O)Nc1cc(F)ccc1F)O2
i	COc1ccc(NC(=O)Nc2cccc3c2O[C@@H](CN(C)S(=O)(=O)c2cn(C)cn2)[C@@H](C)CN([C@@H](C)CO)C3=O)cc1
i	CO[C@H]1CN(C)C(=O)c2ccc(NC(=O)C3CCOCC3)cc2OC[C@@H](C)N(Cc2cccnc2)C[C@@H]1C
i	CCS(=O)(=O)Nc1ccc2c(c1)C(=O)N(C)C[C@@H](OC)[C@@H](C)CN(C(=O)C1CC1)[C@@H](C)CO2
i	CC(C)C[C@H]1CN([C@@H](Cc2ccccc2)CN2CCC[C@H]2CN2C(=O)C(=O)NC[C@@H]2Cc2ccccc2)C(=O)C(=O)N1CC1CCCCCC1
i	COc1cccc(CNC(=O)[C@H]2[C@H](CO)[C@H]3Cn4c(cccc4=O)[C@@H]2N3C(=O)C2CCCCC2)c1
i	Cc1cc(C(=O)Nc2cccc3c2O[C@H](CN(C)Cc2ccc(C(=O)Nc4ccccc4N)cc2)[C@@H](C)CN([C@@H](C)CO)C3=O)n(C)n1
i	CCCC(=O)Nc1ccc2c(c1)C(=O)N(C)[C@@H]1CC[C@H](CC(=O)NCc3ccccc3Cl)O[C@@H]1CO2
i	C[C@@H](O)C#Cc1cnc2c(c1)C(=O)N([C@@H](C)CO)C[C@H](C)[C@H](CN(C)Cc1cccc(F)c1)O2
i	Cc1noc(C)c1NC(=O)N(C)C[C@H]1OCCCC[C@@H](C)Oc2ccc(N(C)C)cc2C(=O)N([C@@H](C)CO)C[C@H]1C
i	CC(C)C#Cc1cnc2c(c1)C(=O)N([C@H](C)CO)C[C@H](C)[C@@H](CN(C)S(=O)(=O)c1cn(C)cn1)O2
i	COc1ccccc1S(=O)(=O)N[C@@H]1CC[C@@H](CCNC(=O)C2CCCC2)O[C@@H]1CO
i	COC(=O)c1cc2c(c3c4ccccc4n(S(=O)(=O)c4ccccc4)c13)C(=O)N(Cc1ccco1)C2
i	C[C@@H]1CN([C@H](C)CO)C(=O)c2cc(NC(=O)CCC(F)(F)F)ccc2O[C@@H](C)CCCCO[C@H]1CN(C)S(=O)(=O)c1ccc(F)cc1
i	O=C(N[C@H]1CC[C@H](CCNS(=O)(=O)c2ccccc2)O[C@@H]1CO)c1cnccn1
i	COc1ccc(CN(C)C[C@@H]2OCCCC[C@H](C)Oc3ccc(NS(=O)(=O)c4cn(C)cn4)cc3C(=O)N([C@@H](C)CO)C[C@H]2C)cc1
i	COc1cccc(NC(=O)N2C[C@@H](O)COC[C@H]3O[C@@H](CC(=O)NCCCN4CCOCC4)CC[C@@H]32)c1
i	COc1ccc(NC(=O)N(C)C[C@H]2Oc3ccc(NS(=O)(=O)c4cccs4)cc3C(=O)N([C@H](C)CO)C[C@H]2C)cc1
i	C[C@H](CO)N1C[C@H](C)[C@H](CN(C)S(=O)(=O)c2ccc(Cl)cc2)OCCCC[C@H](C)Oc2ccc(NS(=O)(=O)c3ccccc3)cc2C1=O
i	COCC(=O)N(C)C[C@@H]1Oc2ncc(-c3ccc(C)cc3)cc2C(=O)N([C@H](C)CO)C[C@H]1C
i	C[C@H](CO)N1C[C@H](C)[C@@H](CN(C)Cc2ccccc2)Oc2ncc(/C=C/c3ccccc3)cc2C1=O
i	O=C(C[C@H]1CC[C@@H]2[C@H](COC[C@H](O)CN2C(=O)c2ccc(F)cc2)O1)Nc1ccc(-c2ccccc2)cc1
i	C[C@H](CO)N1C[C@H](C)[C@@H](CN(C)S(=O)(=O)c2ccccc2)Oc2ncc(C#CCN(C)C)cc2C1=O
i	Cc1noc(C)c1S(=O)(=O)Nc1ccc2c(c1)CC(=O)N([C@H](C)CO)C[C@@H](C)[C@H](CN(C)Cc1ccccc1)O2
i	N#C[C@@H]1[C@H](c2ccc(-c3ccccc3F)cc2)[C@H](CO)N1C(=O)C1CCC1
